Compound activity deposited in PubChem by National Center for Advancing Translational Sciences (NCATS).
NS1 function inh: influenza NS1 inhibition | actives 0.4% (n = 270,000) | S. cerevisiae slowed by influenza A NS1, growth recovery by OD600 | Potency, µM (series often up to 46.1 µM), without a hit: top-dose activity, positive = more growth; note: actives are rising curves; nearly all actives have a fitted effect of over 50% in size
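Read-out: OD600 growth recovery of NS1-expressing budding yeast. Cells grown overnight at 30C in -URA glucose medium, washed, resuspended and diluted 1:100 in 2% galactose assay medium, pH 6.0. Same strain lacking NS1 served as positive control.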
SARS PLpro yeast: blocks SARS-CoV papain-like protease in a yeast assay. AID 485353. Potency, µM (top dose mostly 32.9 µM), without a hit: top-dose activity, positive = growth rescue. actives 0.19% (n = 330,000). S. cerevisiae expressing SARS-CoV PLpro, growth rescue; control for the full effect not named in the record; note: 0% is about no effect; nearly all actives have a fitted effect of over 55% in size; growth read by luminescence after 48 h
RE007 growth inh: less growth of the S. pombe RE007 Vpr strain. actives 0.21% (n = 360,000). Potency, µM (top dose mostly 92.2 µM), for the others: at the top dose activity change, negative = less growth. S. pombe RE007 Vpr strain, BacTiter-Glo ATP luminescence, 24 h; control for the full effect not named in the record; active = well fitted falling curve with a large enough effect; inconclusive = small, poorly fitted or top-dose-only effect; inactive = no such curve, though single readings can be large or run the other way;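 note: % is set by controls: 0 for no effect and ±100 for the full control effect; nearly all actives have a fitted effect of over 50% in size; the assay follows cell death caused by Vpr and the record does not say whether a fall means rescue or toxicity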
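Fission yeast strain RE007, carrying one chromosomally integrated HIV-1 vpr copy, was seeded at OD 0.01 in PMG+AL medium with 23 nL pinned compound. After 24 h at 30 °C and 99% humidity, viability was read by BacTiter-Glo luminescence.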
Cruzain inh Det: inhibitors of Trypanosoma cruzi cruzain with detergent; actives 0.43% (n = 200,000); P25779; AID 1478; Potency, µM, without a hit: max response, negative = inhibition, most hits filed as inhibitors; purified cruzain, Z-FR-AMC fluorescence, 0.01% Triton; active = well fitted curve in the direction sought with a large enough effect; inconclusive = small, poorly fitted or top-dose-only effect, or another doubt; inactive = no such curve, though single readings can be large; an effect the other way counts as inactive or inconclusive;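 note: plate controls were neutral wells for no effect and buffer without enzyme for full effect; nearly all actives have a fitted effect of over 40% in size; top concentration of the series not given in the record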
Target sequence (P25779 123-467 limits assumed): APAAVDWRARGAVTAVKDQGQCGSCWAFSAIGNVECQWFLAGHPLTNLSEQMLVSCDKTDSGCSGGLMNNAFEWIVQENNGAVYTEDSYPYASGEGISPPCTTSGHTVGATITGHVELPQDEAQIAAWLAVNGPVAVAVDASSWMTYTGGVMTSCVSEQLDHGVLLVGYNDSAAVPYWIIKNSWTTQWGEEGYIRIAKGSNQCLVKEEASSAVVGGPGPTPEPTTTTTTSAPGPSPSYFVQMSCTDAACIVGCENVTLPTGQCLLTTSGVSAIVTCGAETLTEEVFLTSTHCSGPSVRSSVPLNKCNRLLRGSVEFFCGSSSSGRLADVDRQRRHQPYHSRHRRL
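15 min RT preincubation of 1.5 nM cruzain with compound, then 2 uM Z-FR-AMC added; kinetic AMC fluorescence, 60 s delta. Triton X-100 0.01%, pH 5.5.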
Marburg entry inh: blocks Marburg virus binding to or entry into cells. Marburg virus pseudotyped entry inhibition, cell reporter; control for the full effect not named in the record; about a third of the inactives were read at about 46 µM. Potency, µM (doses to about 37.8 µM), for inactives: at the highest dose activity change, negative = inhibition, actives largely listed as inhibitors. actives 1.8% (n = 300,000). AID 540276; active = well fitted inhibition curve with a large enough effect; inconclusive = small, poorly fitted or top-dose-only effect, or effect the other way; inactive = flat fitted curve, though single readings scatter; tested in HEK293 cells; about a fifth of its hits are not listed in these tables; note: % is set by controls: 0 for no effect and ±100 for the full control effect; luciferase read-out
StopGo reporter: lowers the luciferase signal of an FMDV 2A StopGo reporter; Potency, µM (series often up to 57.9 µM), for the others: top-dose signal change, negative = less light; actives 1.2% (n = 410,000); AID 1159524; human cells with a luciferase reporter of 2A StopGo recoding; control for the full effect not named in the record; active = well fitted falling curve with a large enough effect; inconclusive = small, poorly fitted or top-dose-only effect; inactive = no such curve, though single readings can be large or run the other way; tested in HEK293T cells; note: % is set by controls: 0 for no effect and ±100 for the full control effect; nearly all actives have a fitted effect of over 45% in size; luciferase light after 4 h
Lassa entry inh: inhibitors of Lassa virus binding or cell entry; Lassa virus pseudotype entry inhibition, cell reporter; control for the full effect not named in the record; Potency, µM (top dose mostly 37.9 µM), for inactives: at the highest dose activity change, negative = inhibition, hits mostly inhibitors; actives 1.2% (n = 300,000); active means well fitted inhibition curve with a large enough effect; inconclusive means small, poorly fitted or top-dose-only effect, or effect the other way; inactive means flat fitted curve, though single readings scatter; tested in HEK293 cells; note: % is set by controls: 0 for no effect and ±100 for the full control effect; nearly all actives have a fitted effect of over 50% in size; luciferase read-out
Cruzain inh noDet: cruzain (T. cruzi) inhibition without detergent | P25779 | purified cruzain, Z-FR-AMC fluorescence, no detergent | Potency, µM, without a hit: max response, negative = inhibition, hits mostly inhibitors | actives 2.3% (n = 200,000); active = well fitted curve in the direction sought with a large enough effect; inconclusive = small, poorly fitted or top-dose-only effect, or another doubt; inactive = no such curve, though single readings can be large; an effect the other way counts as inactive or inconclusive;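 note: plate controls were enzyme without inhibitor for no effect and buffer without enzyme for full effect; nearly all actives have a fitted effect of over 40% in size; top concentration of the series not given in the record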
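Detergent-free condition (0.00005% Triton X-100) in acetate buffer pH 5.5 with DTT. 1.5 nM enzyme and compound were pre-mixed 15 min, then 2 uM Z-FR-AMC substrate added; reaction progress from fluorescence change between first and third reads (60 s).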
Starred values were filed as active, the others as inactive; ? = inconclusive; / = no result given; & = joins results of further samples; [ ] = another dose, or the depositor's remark. Unless noted, calls come from the whole dose curve; as a rule, active means well fitted rising curve with a large enough effect; inconclusive means small, poorly fitted or top-dose-only effect; inactive means no such curve, though single readings can be large or run the other way. Potency is the fitted concentration of half-maximal effect. Not a hit list; any-hit rate near 4.7%.

SMILES	NS1 function inh	SARS PLpro yeast	RE007 growth inh	Cruzain inh Det	Marburg entry inh	StopGo reporter	Lassa entry inh	Cruzain inh noDet
COc1ccc(-c2nnnn2C(C)C)cc1	-3%	1%	1%	/	14%	0%	5%	/
CC(CCc1ccccc1)NC(=O)COC(=O)CC1CC2CCC1C2 (configuration not stated)	-22%	-33%	-15%	-5.3%	-21%	-9%	5%	6%
CCc1nnc(NC(=O)c2ccc(S(=O)(=O)N3CCCC3)cc2)s1	-9%	0%	-12%	/	18%[46.1 µM]	20%	/	/
FC(F)(F)c1cccc(N2CCN(c3nc4ccccc4n4cnnc34)CC2)c1	/	/	/	-2.1%	16%[46.1 µM]	?	/	3%
CCOC(=O)c1c(NC(=O)Cn2nc([N+](=O)[O-])c(Br)c2C)sc2c1CCC(C)C2 (configuration not stated)	3%	2%	1%	-4.0%	?	-20%	16%	13µM*
COC(=O)/C(=C\c1ccc([N+](=O)[O-])o1)NC(=O)c1ccccc1	-10%	-6%	-4%	-6.5%	-18%	-4%	-13%	-2%
CCOc1ccc(/C=C/C(=O)Nc2ccc3[nH]c(=O)[nH]c3c2)cc1	16%	32%	23%	0.5%	?	-17%	7%	?
Cn1c(SCC(=O)NCC2CCCO2)nnc1-c1cccc(NC(=O)c2ccccc2F)c1 (configuration not stated)	?	1%	-5%	/	0%[46.1 µM]	30%[activator]	/	/
O=C(CCN1C(=O)c2cccc3cccc(c23)C1=O)NCc1cccnc1	/	1%	-1%	/	2%[46.1 µM]	12%	2%	/
CCCN1C(=O)c2ccccc2NC1c1ccc(C)cc1 (configuration not stated)	/	-1%	32%	/	?	-19%	6%	/
COCCn1c(=O)[nH]c2cc(C(=O)N3CCN(c4cccc(C(F)(F)F)c4)CC3)ccc2c1=O	2%	1%	-14%	/	?	?	1%[46.1 µM]	/
COc1cc(CNC2CCCCCCC2)cc(Cl)c1OC	-10%	1%	5%	/	?	-18%	?	/
OCCN1CCN(c2nc(N3CCCCC3)nc(N3CCCCC3)n2)CC1	-14%	-2%	27%	-0.9%	?	-10%	-14%	-6%
C=C(C)COc1cc2oc(=O)c(CC(=O)N3C[C@H]4C[C@@H](C3)c3cccc(=O)n3C4)c(C)c2cc1Cl	11%	0%	-8%	/	/	-16%	/	/
COc1ccc(-n2nnnc2-c2cccnc2)cc1	0%	-9%	6%	0.8%	?	21%	5%	-6%
COc1cccc(/C=C/C2=CC(C)(C)NC(=S)N2)c1	0%	1%	8%	/	7%[46.1 µM]	18%	?	/
Cc1ccccc1NC(=O)OCCN1CCN(Cc2ccccc2)CCC1=O	-23%	6%	-2%	-1.0%&-2.1%	-20%	-1%	-11%	2%&6%
COc1ccccc1NS(=O)(=O)c1cccc(C(=O)NCC(C)(C)N2CCOCC2)c1	4%	-7%	-6%	/	/	14%	/	/
CCOCCCNC(=O)c1ccc(Cn2c(=O)[nH]c3ccsc3c2=O)cc1	/	0%	-2%	/	-12%[46.1 µM]	17%	-2%[46.1 µM]	/
CCN(C(=O)COC(=O)c1ccccc1Cc1ccccc1)C1CCS(=O)(=O)C1 (configuration not stated)	/	-6%	-18%	/	-24%	-15%	-6%	/
O=C(Nc1nc(-c2ccc(S(=O)(=O)N3CCCC3)cc2)cs1)c1cccs1	15%[9.22 µM]	-7%	-1%	-4.7%	?	?	?	-27%
COCCNC(=O)CN(C(=O)CCC(=O)Nc1ccccn1)c1ccccc1F	/	-4%	-19%	/	-7%[46.1 µM]	-1%	6%	/
CCCCNC(=O)CCCn1c(=O)c2ccccc2n(Cc2c(C)cc(C)cc2C)c1=O	/	/	/	-0.9%	-4%[46.1 µM]	-5%	-8%[46.1 µM]	-10%
COC(=O)C1C(O)=C(C=NCC(C)N=CC2=C(O)C(C(=O)OC)C(C)(C)CC2=O)C(=O)CC1(C)C (configuration not stated)	1%	-7%	-5%	-0.2%	3%&3%	-23%	-3%	2%
N#CC(c1ccc(Cl)cc1)(c1ncc(C(F)(F)F)cc1Cl)N1CCOCC1 (configuration not stated)	-23%	0%	-6%	-11%	-16%	?	-24%	9%
O=[N+]([O-])c1cccc(OCCN2CCC(Cc3ccccc3)CC2)c1	-6%	-12%	-18%	/	?	-2%	-24%[46.1 µM]	/
Cc1ccc(C(=O)NC(=S)Nc2ccccc2C(F)(F)F)cc1	-13%	4%	-8%	-8.9%	3%	-2%	13%	-5%
O=C(c1ccc(Cl)cc1)N1CCN(c2ccnc3cc(Cl)ccc23)CC1	-37%	-3%	-16%	/	/	28µM*	?	/
COc1cccc(-n2nnnc2SCC(=O)NC2CCCCC2)c1	-6%	8%	-7%	/	3%[46.1 µM]	0%	-13%[46.1 µM]	/
CCCN(CCC)C1CCc2cccc(O)c2C1 (configuration not stated)	0%	/	-9%[18.4 µM]	2.4%	?	-14%&-8%	?	11%
COC(=O)C1=CN(C)C=C(C(=O)OC)C1c1ccsc1	8%	-2%	0%	-15%	-2%	5%	0%	8%
Cc1cc(O)c(C(c2ccccc2Cl)N2CCN(c3ccccc3)CC2)c(=O)n1Cc1ccco1 (configuration not stated)	/	/	/	-1.0%	/	?	8%[46.1 µM]	?
Cc1ccc(-n2c(SCC(=O)Nc3ccc4c(c3)OCO4)nc3c([nH]c4ccccc43)c2=O)cc1	/	/	/	-3.7%	/	13%	-22%[46.1 µM]	13µM*
CCCOc1ccc(C(=O)N(Cc2ccco2)Cc2ccco2)cc1	/	/	/	-6.4%	8%[46.1 µM]	10%	?	-1%
O=C(Nc1cccc(C(F)(F)F)c1)Nn1cnnc1	11%	14%	-6%	/	/	-20%	/	/
CCN(CC(=O)NCc1ccc(F)cc1)C(=O)C1CCN(C(=O)Nc2ccccc2)CC1	-7%	7%	0%	2.9%	28%	37%[activator]	?	2%
CCOC(=O)N1CCC(N2Cc3cccc(C(=O)NCc4ccccn4)c3C2=O)CC1	?	2%	-1%	-0.6%	/	-20%	/	-8%
O=C(Nc1ccc(F)cc1)Nc1nnc(-c2ccncc2)s1	-3%	-4%	-15%	0.9%	-1%	?	?	5%
COc1ccc(Nc2nc(N)c([N+](=O)[O-])c(N3CCN(C)CC3)n2)cc1	2%	-2%	-5%	/	/	-9%	/	/
Cc1ccc(C(=O)/C=C\C(=O)c2ccc(C)cc2)cc1	-53%	-23%	3%	-8.9%	26%	-19%	-9%	-21%
CSc1ncc(C(=O)Nc2ccc(Br)cn2)c(C)n1	3%	0%	-9%	/	/	12%	/	/
COc1ccc(S(=O)(=O)c2c(O)c3ccc(C(=O)NCc4ccc(F)cc4)cc3[nH]c2=O)cc1	/	/	/	1.2%	/	-14%	21%[46.1 µM]	?
O=C(OCC(=O)c1c[nH]c2ccccc12)c1cc(Br)ccc1O	/	-2%	3%	/	13%[46.1 µM]	15%	0%	/
CC(CCc1ccccc1)NC(=O)c1cc2sccc2n1C (configuration not stated)	-20%	1%	-3%	-9.2%	-14%	-15%	4%	6%
CC1CCCC/C1=N\NS(=O)(=O)c1ccc(Br)cc1 (configuration not stated)	-1%	1%	11%	-0.7%	21%[46.1 µM]	78%[activator]	?	-6%
COc1ccc(C(=O)N/N=C/c2ccc(OC(=O)c3cccs3)cc2)cc1	-10%	17%	0%	-0.1%	?	25%	-2%	?
OCC[C@@H]1C[C@@H](O)[C@H](O)[C@@]2(OCCc3ccccc32)O1	-13%	1%	7%	/	/	-12%	/	/
CCn1nc(-c2ccccc2)c2nc3ccccc3nc21	-33%	1%	-5%	-4.3%	5%	?	-18%	23%
CC1(C)C(C(=O)NN2C(=O)c3ccccc3C2=O)C1(C)C	3%	10%	8%	5.3%	-3%	0%	3%	8%
CCCCCn1cc2c(c1-c1ccccc1Br)c(=O)n(C)c(=O)n2C	/	/	/	-4.0%	3%[46.1 µM]	0%	-4%[46.1 µM]	12%
O=S(=O)(c1ccc(NC(=S)N/N=C/c2ccc(Oc3ccccc3)cc2)cc1)N1CCOCC1	15%	1%	8%	/	-2%[46.1 µM]	6%	-2%[46.1 µM]	/
CCCc1ccc(OCC(=O)Nc2sc3c(c2C(=O)OCC)CCC(C(C)(C)C)C3)cc1 (configuration not stated)	/	/	/	6.6%	/	0%	1%[46.1 µM]	0%
Cc1ccc(-c2nnc(Nc3ccc(O)cc3)c3ccccc23)cc1S(=O)(=O)NC(C)(C)CO	/	/	/	-17%	24%[46.1 µM]	33%[activator]	12%[46.1 µM]	-13%
Cc1ccc(C2C(/C=C3/SC(=S)NC3=O)=C(c3cccs3)Oc3ccccc32)cc1 (configuration not stated)	12%	-9%	12%	-2.4%	?	/	?	7.9µM*
Nc1ccccc1-c1n[nH]c(=S)s1	/	-10%	1%	/	?	0%	-3%[46.1 µM]	/
COc1cc2[nH]c(=O)n(CCCCCC(=O)NCCc3c[nH]c4ccccc34)c(=O)c2cc1OC	3%	0%	11%	-3.6%	?	?	-3%	?
COCCc1nn2c(=O)cc(COC(=O)c3cc(OC)c(OC)c(OC)c3)nc2s1	10%	-2%	1%	/	/	-5%	/	/
O=C(NCC(=O)N1CCN(Cc2ccccc2)CC1)c1ccc(Br)cc1	-4%	-3%	-8%	/	?	-21%	7%[46.1 µM]	/
CN(C)N1C(N)=C(C#N)C(c2ccc(F)cc2)C2=C1CCCC2=O (configuration not stated)	2%	1%	12%	/	-14%[46.1 µM]	-11%	-4%[46.1 µM]	/
COc1ccc(CCC(C(O)C(F)(F)F)S(=O)c2ccccc2)cc1 (configuration not stated)	-2%	-3%	13%	-0.6%	-16%	/	-2%	2%
N#Cc1c(-c2ccccc2)nc(SCC(=O)N(c2ccccc2)c2ccccc2)[nH]c1=O	25%	24%	23%	-28%	?	-18%	3%	12%
CC1(C)CC(NC(=O)c2ccccn2)CC(C)(C)N1O	5%	1%	-1%	/	/	-1%	/	/
Cc1cc(C)c(C)c(OCCCOc2cccc3cccnc23)c1	-38%	-96%	?	-10%	?	-17%	-5%	3%
